Screening results (PubChem BioAssay)
VDR inhibitor = vitamin D3 receptor (human) inhibition; VDR-SRC2-3 peptide fluorescence polarization, 2 h; Potency, µM, without a hit: max response, negative = inhibition, usual class: inhibitors; actives 0.93% (n = 400,000); AID 504847; active = well fitted inhibition curve with a large enough effect; inconclusive = small, poorly fitted or top-dose-only effect, or another doubt; inactive = no such curve, though single readings can be large or run the other way; also: series mostly up to about 120 µM
Target sequence (P11473 whole entry, looked up): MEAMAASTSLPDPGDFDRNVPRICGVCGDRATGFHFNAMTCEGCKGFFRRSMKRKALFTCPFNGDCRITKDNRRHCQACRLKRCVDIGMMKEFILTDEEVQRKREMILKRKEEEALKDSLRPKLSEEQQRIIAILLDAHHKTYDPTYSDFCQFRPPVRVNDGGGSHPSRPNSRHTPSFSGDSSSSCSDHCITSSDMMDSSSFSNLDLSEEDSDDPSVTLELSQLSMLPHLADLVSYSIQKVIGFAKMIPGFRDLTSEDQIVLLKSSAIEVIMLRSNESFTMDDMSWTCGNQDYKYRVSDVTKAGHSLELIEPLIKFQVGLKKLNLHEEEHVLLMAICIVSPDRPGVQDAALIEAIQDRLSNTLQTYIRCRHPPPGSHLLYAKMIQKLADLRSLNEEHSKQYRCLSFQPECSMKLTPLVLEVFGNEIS
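Measured by FP: displacement of SRC2-3 coactivator peptide from VDR by library compounds, following a two-hour ambient incubation.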
* marks the source's active call; other numbers are inactive results; ? = inconclusive; & = joins results of further samples. % is scaled to controls: 0 for no effect and ±100 for the full control effect; potency is read from the fitted curve at half-maximal effect. This is a subset; rates above refer to the full screens.

VDR inhibitor	Compound
-12%	Cc1ccc(C(=O)OCc2nnc(-c3ccccc3)o2)cc1S(=O)(=O)N1CCOCC1
18%	Cc1ccc2nc(SC(C)C(=O)NCc3ccco3)[nH]c2c1 (centres undefined)
13%	COc1cccc(CNC(=O)c2[nH]c3cc(C)ccc3c2Sc2ccccc2)c1
?	CC(=O)Nc1ccc(NS(=O)(=O)c2ccc3ccccc3c2)cc1
-4%	COc1ccc(NC(=O)CSc2cc(C(=O)c3nccn3C)c3ccccc3n2)cc1
17%	COCc1cc(C)n(CC(=O)Nc2ccccc2C(=O)OC)c(=O)c1C#N
-2%	O=c1[nH]ncn1-c1ccccc1C(F)(F)F
-1%	O=S(=O)(NCCO)c1cccc2cccnc12
11%	COc1ccccc1NC(=O)c1cc(-c2ccc(OC)c(OC)c2)nc2ccccc12
-10%	Cc1cccc(COc2ccc(/C=C3/C(=O)N(C)C(=S)N3C)cc2)c1
-16%	Cc1ccc(S(=O)(=O)N2CCC(=O)N(CCOC(=O)NCc3ccccc3)CC2)cc1
-8%	CCCN(CCC)S(=O)(=O)c1cccc(C(=O)Nc2ccc3c(c2)OCO3)c1
0%	COc1cc(-c2[nH]ncc2CN2CCN(Cc3cccs3)CC2)cc(OC)c1OC
-8%	CCN(CCCNC(=O)COc1cc(=O)n(C)c2ccccc12)c1cccc(C)c1
-20%	Cc1cccc(NC(=S)NCc2ccco2)n1
0%	C#CCn1c(S(=O)(=O)Cc2ccccc2Cl)nc(-c2ccccc2)c1-c1ccccc1
0%	O=C(NCCCN1CCN(c2ccc(F)cc2)CC1)c1ccc2nc(Cc3ccccc3)oc2c1
6%	CC(C)C(NC(=O)C1CCCCC1)C(=O)Nc1ccccn1 (centres undefined)
-15%	COc1ccc(C(C(=O)NC2CCCCC2)N(Cc2ccco2)C(=O)c2ccccn2)c(OC)c1 (centres undefined)
-8%	Cc1onc(-c2ccccc2)c1C(=O)N1CCN(CCc2ccccc2)CC1
-1%	CCCCOC(=O)NC1CCS(=O)(=O)C1 (centres undefined)
-10%	Cc1ccccc1C(=O)NCC(=O)OC(C)C(=O)Nc1cccc(S(=O)(=O)N2CCOCC2)c1 (centres undefined)
11%	COc1cc(/C=N/NC(=O)COc2ccccc2C)ccc1OC(=O)c1cccs1
26%	Clc1cccc(/C=N/Nc2ncnc3ccccc23)c1
3%	COc1cc(-n2c(=O)c3ccccc3n(Cc3cccc(Cl)c3)c2=O)cc(OC)c1OC
14%	COC(=O)/C=C1\SC(=NC(=O)c2cccc([N+](=O)[O-])c2)NC1=O
-11%	Cc1noc(C)c1C(=O)OCC(=O)Nc1ccc(N2CCOCC2)cc1
-15%	CN(C)c1ccnc(-n2cccc2/C=N/OCc2ccc(F)cc2Cl)c1C#N
-4%	CCOc1ccc(NC(=O)c2ccc(Cn3nc(C)cc3C)o2)cc1
-12%	COc1cc(OC)c(NC(=O)c2sc3ncn(CC(=O)N4CCN(c5ccccn5)CC4)c(=O)c3c2C)cc1Cl

Sorted by the number under VDR inhibitor (largest number first): some entries from above
SMILES	VDR inhibitor
CCN(CCCNC(=O)COc1cc(=O)n(C)c2ccccc12)c1cccc(C)c1	-8%
Cc1ccc(C(=O)OCc2nnc(-c3ccccc3)o2)cc1S(=O)(=O)N1CCOCC1	-12%
Cc1cccc(NC(=S)NCc2ccco2)n1	-20%

The list continues:
VDR inhibitor	Compound
-8%	COc1ccc(NC(=O)Cn2cc(C(=O)c3ccc(C)c(C)c3)c(=O)c3cc(OC)ccc32)cc1
-8%	COC(=O)c1ccc(N2CCN(S(=O)(=O)c3ccc(C)cc3)CC2)c([N+](=O)[O-])c1
5%	COc1ccccc1/C=N/NC(=O)c1cc2c(OC)c(OC)ccc2[nH]1
-2%	CCC(=O)NC(c1cc(Cl)c2cccnc2c1O)C(C)C (centres undefined)
10%	COC(=O)c1sc2cccc(F)c2c1S(=O)(=O)NCc1ccc(F)cc1
-20%	COc1ccc(C2COc3cc(O)ccc3C2)c(OC)c1O (centres undefined)
4%	COc1ccc(OCCCn2c(C3CC(=O)N(c4ccc(F)cc4)C3)nc3ccccc32)cc1 (centres undefined)
-17%	Cc1ccc(-c2csc(=Nc3ccc(F)cc3)n2Cc2ccc3c(c2)OCO3)cc1C
-5%	CN1CC(=O)N(CC(=O)Nc2cccc(S(=O)(=O)N3CCOCC3)c2)C1=O
18%	CCOC(=O)c1c(C)nc2ccccc2c1C
1%	COc1ccc(CN2CCc3nc(Nc4ccccc4)ncc3C2)c(OC)c1OC
6%	O=C(Nc1nnc(CCN2CCOCC2)s1)c1ccccc1
1%	Cc1cccn2c(=O)cc(COc3cccc(NC(=O)Nc4cccc(Cl)c4)c3)nc12
11%	O=C(O)C1CCCN1S(=O)(=O)c1ccc2ccccc2c1 (centres undefined)
-9%	COc1ccc2[nH]c(C(=O)N3CCC(n4nccc4NC(=O)C4CC4)CC3)c(C)c2c1
?	CCN(CC)CC1CCN(c2ncc3ncnc(Nc4ccc(F)c(Cl)c4)c3n2)CC1
7%	CN(C)c1ccc(Nc2ncnc3sc4c(c23)CCCC4)cc1
19%	CCc1nc(N)nc(N)c1-c1ccc(Cl)c([N+](=O)[O-])c1
-15%	CCOC(=O)c1c(O)c2cc(Cl)ccc2n(CC)c1=O
-12%	COCCCNc1nc2ccccc2nc1NS(=O)(=O)c1cccc(C)c1
16%	CCN(CC)c1ccc(CNc2ccc(Br)cn2)cc1
-3%	CCOC(=O)c1cccc(C(=O)OCC)n1
8%	CCCc1nnc(NS(=O)(=O)c2ccccc2)s1
0%	CS(=O)(=O)N1CCc2cc(C(=O)N3CCCC3)ccc21
-5%	COc1ccccc1N1CCN(C(=O)CN2C(=O)COc3ccc(S(=O)(=O)N4CCOCC4)cc32)CC1
?	Cc1cc(C(=O)N/N=C/c2ccc(N(C)C)o2)cs1
-13%	O=C(Nc1ncc2c(n1)-c1ccccc1CC2)c1ccccc1
-14%	O=C(Cc1ccccc1)NCC(=O)Nc1cccc(Br)c1
3%	COc1cccc(CNC(=O)CN(C)S(=O)(=O)c2ccc3c(c2)CC(C)N3C(C)=O)c1 (centres undefined)
14%	Cc1cc(C)cc(S(=O)(=O)Nc2cccc(-c3ccc(N4CCOCC4)nn3)c2)c1
-7%	CC1O[C@@H]2O[C@](O[C@H](C)CC[C@@H](C)O)(c3ccccc3)O[C@@H]2C[C@H]1O (some centres undefined)
-8%	CCN(CC)CC(=O)Nc1cccc2c1C(=O)c1ccccc1C2=O
2%	CC(C)CN(C(=O)C1=NN(c2ccccc2)C(=O)CC1)c1c(N)n(Cc2ccccc2)c(=O)[nH]c1=O
1%	COC(=O)COn1c(SC(C)C)nc2ccccc2c1=O
-7%	COc1ccc(N2CCN(S(=O)(=O)c3c(C)[nH]c(C)c3C(=O)N3CCCC3)CC2)cc1
-18%	O=c1oc(-c2ccccc2)nc2c1cnn2-c1ccccc1
0%	C[C@H]1OC(=O)CC[C@@H]2[C@]1(C)CCC1[C@@]2(C)CC[C@@]2(C)C3CC(C)(C)CC[C@]3(CO)CC[C@]12C (some centres undefined)
10%	O=C(COC(=O)c1ccco1)Nc1ccc(Br)cc1
-20%	Cn1c(N)c(C(=O)COC(=O)c2ccccc2C(F)(F)F)c(=O)n(C)c1=O
10%	Cc1ccc(NC(=O)Cn2ccn(Cc3ccc(Cl)cc3)c(=O)c2=O)cc1C
0%	O=C(Nc1nccs1)c1cn(-c2ccccc2)nc1-c1ccncc1
4%	Cc1oc(-c2ccc(C(=O)Nc3cccc(C(F)(F)F)c3)cc2)nc1CSc1ccccc1
-15%	COCc1cc(=O)n2[nH]c(-c3ccco3)cc2n1
6%	O=C(COC(=O)CCN1C(=O)C2CC=CCC2C1=O)NCCc1ccc(F)cc1 (centres undefined)
10%	CCn1ccnc1CNC(=O)c1ccc2oc(C(C)C)nc2c1
6%	CCCCOc1ccc(C(=O)N2CCCC2C(=O)O)cc1 (centres undefined)
-13%	Cc1ccc2c(c1)C1(SCCS1)C(=O)N2
-12%	O=C(COC(=O)c1cc(-c2cccs2)nc2ccccc12)NCc1ccco1
3%	Cc1nc2ccn(Cc3ccco3)c(=O)c2cc1C(=O)NCc1ccccc1
8%	COc1cc2c(C(=O)N3CCN(c4ccc(F)cc4)CC3)cn(CC(C)C)c(=O)c2cc1OC
-9%	COc1ccc(OC)c(NC(=O)NCc2ccc(F)cc2)c1
5%	Cc1ccc(CNC(=O)CCc2c(C)[nH]c(=O)c(C#N)c2C)cc1
-5%	COC(=O)C1=C(C)N(c2cccc(Cl)c2)C(=O)C1
1%	COc1ccc(N(C)C(=O)Cc2c(C(=O)O)[nH]c3ccccc23)cc1
-10%	Cc1cccnc1NC(=O)NC(=O)c1ccc(C(C)(C)C)s1
8%	COc1ccc(-c2noc(C3CCCN(S(=O)(=O)c4cccc(Cl)c4)C3)n2)cc1OC (centres undefined)
-10%	Cc1cc(C)nc(NS(=O)(=O)c2ccc(NC(=O)CN3C(=O)C4CC=CCC4C3=O)cc2)n1 (centres undefined)
0%	CCOc1ncccc1C(=O)Nc1cccc(S(=O)(=O)N2CCOCC2)c1
8%	CCOCCCNC(=O)c1cnc2sc(N3CCCCC3)nn2c1=O
-19%	Cc1ccc(S(=O)(=O)N(CC(=O)NCc2ccccn2)c2ccc(Cl)cc2)cc1

Rewritten bar-delimited: entries from further up
structure | VDR inhibitor
CCN(CC)CC(=O)Nc1cccc2c1C(=O)c1ccccc1C2=O | -8%
Cc1cc(C)nc(NS(=O)(=O)c2ccc(NC(=O)CN3C(=O)C4CC=CCC4C3=O)cc2)n1 (centres undefined) | -10%
Cc1ccc(CNC(=O)CCc2c(C)[nH]c(=O)c(C#N)c2C)cc1 | 5%
COC(=O)C1=C(C)N(c2cccc(Cl)c2)C(=O)C1 | -5%

Of the compounds above, three have bromine:
VDR inhibitor	Compound
16%	CCN(CC)c1ccc(CNc2ccc(Br)cn2)cc1
-14%	O=C(Cc1ccccc1)NCC(=O)Nc1cccc(Br)c1
10%	O=C(COC(=O)c1ccco1)Nc1ccc(Br)cc1

The listing continues:
VDR inhibitor	Compound
7%	CCOc1ccccc1CSc1nc2ccccc2[nH]1
-23%	CCc1c(C)sc(NC(=O)c2cc(CC(C)C)on2)c1C#N
5%	COc1ccc(S(=O)(=O)N(CCc2ccccc2)CC(=O)Nc2cc(Cl)ccc2C)cc1
-7%	CCOCCOC(=O)C1=C(C)N(C)C(=O)NC1c1ccccc1Cl (centres undefined)
8%	CC1CCCC(N2C(=O)NC(NC(=O)c3ccco3)(C(F)(F)F)C2=O)C1C (centres undefined)
-7%	CN(CC(=O)Nc1ccc(F)cc1)C(=O)COC(=O)CN1C(=O)NC2(CCCC2)C1=O
12%	O=S(=O)(c1cnc[nH]1)N1CCc2ccccc21
-23%	CCCCOC(=S)NC(=O)c1sc2ccccc2c1Cl
-1%	Cc1cc(C)n2c(SCC(=O)Nc3c(C)n(C)n(-c4ccccc4)c3=O)nnc2n1
-13%	CCCCn1c(N)c(N(CCC(C)C)C(=O)C2=COCCO2)c(=O)[nH]c1=O
-7%	Cc1sc2ncnc(N3CCC(C(=O)NCC(=O)Nc4ccc(F)c(F)c4)CC3)c2c1C
6%	COC(=O)Cn1c(=O)n(CCc2ccccc2)c(=O)c2c3c(sc21)CCCC3
-7%	CC(OC(=O)/C=C/c1ccc2ccccc2n1)C(=O)NCc1ccccc1 (centres undefined)
0%	C[C@H](NC(N)=O)C(=O)OCC(=O)NCc1cccs1
-4%	Cc1ccc(S(=O)(=O)N2C[C@@H]3[C@H]4CC[C@H](C4)[C@@H]3[C@@H](C)[C@@H]2c2ccco2)cc1
9%	O=S(=O)(Nc1cccc(-c2cn3cccnc3n2)c1)c1ccc(Cl)cc1
-8%	CCCCCOc1ccc(C(=O)C(c2ccccc2)N2CCOCC2)cc1 (centres undefined)
-17%	C=CCN1c2ccc(Br)cc2C(=O)CS1(=O)=O
-1%&-13%	COc1cc(NC(=O)Cn2c(=O)n(CC3CCCO3)c(=O)c3cc(OC)c(OC)cc32)cc(OC)c1 (centres undefined)
-14%	OCC1OC(O)CC(O)C1O (centres undefined)
-13%	CC(=O)C1=C(O)C(=O)N(c2nnn(C)n2)C1c1cccs1 (centres undefined)
-4%	CC(=O)OC[C@]1(OC(C)=O)C[C@@]23CC[C@H]4[C@@](C)(CCC[C@@]4(C)C(=O)O)[C@@H]2CC[C@@H]1C3
-1%	C=CCN1C(=O)C2(C(C(=O)c3ccc(C)o3)=C(O)C(=O)N2CCCN2CCOCC2)c2ccccc21 (centres undefined)
-13%	CCCCCc1cc(=O)oc2c(C(CCN3CCCC3)c3ccc4c(c3)OCO4)c(OC)cc(OC)c12 (centres undefined)
-3%	CC(=O)Nc1ccc(S(=O)(=O)NCC(=O)OCc2cc(=O)oc3ccc4ccccc4c23)cc1
10%	COc1cc(OC)cc(C(=O)Nc2cccc3c2CCCC3)c1
-2%	CCCOc1ccc(/C=C/C(=O)Nc2ccc([N+](=O)[O-])cc2C)cc1
-8%	COc1cc(C(=O)NC2CCCCC2)ccc1OCc1ccc(Cl)cc1Cl
-2%&-4%&-4%	Clc1ccc2ncnc(NCc3ccc4c(c3)OCO4)c2c1
-7%	CC(C)C[C@H](N)c1nnc(SCc2ccc(Cl)cc2)o1
1%	CCC(C)Sc1nc(O)cc(=O)[nH]1 (centres undefined)
-1%	Cc1ccc(CNC(=O)COC(=O)c2cc(C)oc2C)cc1
17%	Cc1cc(C(=O)NC(C)c2ccc3c(c2)OCO3)cs1 (centres undefined)
